VDR inhibitor = inhibitors of human vitamin D receptor; hit rate 0.93% among 400,000; Potency, µM, inactives show max response, negative = inhibition, most hits filed as inhibitors; P11473; VDR-SRC2-3 peptide fluorescence polarization, 2 h; AID 504847; active means well fitted inhibition curve with a large enough effect; inconclusive means small, poorly fitted or top-dose-only effect, or another doubt; inactive means no such curve, though single readings can be large or run the other way; further: series mostly up to about 120 µM
Target sequence (P11473 whole entry, looked up): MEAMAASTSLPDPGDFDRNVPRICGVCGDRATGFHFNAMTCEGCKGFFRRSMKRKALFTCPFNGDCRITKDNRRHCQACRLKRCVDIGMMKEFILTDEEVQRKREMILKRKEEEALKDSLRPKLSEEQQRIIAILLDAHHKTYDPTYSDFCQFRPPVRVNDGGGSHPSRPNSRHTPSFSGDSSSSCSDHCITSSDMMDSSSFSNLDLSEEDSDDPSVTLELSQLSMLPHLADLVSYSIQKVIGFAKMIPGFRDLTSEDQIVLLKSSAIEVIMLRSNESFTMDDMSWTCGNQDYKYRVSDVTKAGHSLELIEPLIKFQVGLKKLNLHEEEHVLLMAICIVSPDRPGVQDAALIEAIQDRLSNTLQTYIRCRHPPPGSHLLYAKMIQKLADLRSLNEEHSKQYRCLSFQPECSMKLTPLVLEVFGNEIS
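Fluorescence polarization assay of small-molecule disruption of VDR binding to coregulator peptide SRC2-3. Compounds and controls pin-transferred, then read after 2 h incubation at ambient room temperature.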
The depositor's hits bear a star; ? = inconclusive; [ ] = remark or other dose. On the % scale 0 is the no-effect control and ±100 the full control effect; potency means the concentration at half of the fitted maximal effect. These rows are one share of the data; the hit share may differ from the screen's.

SMILES | VDR inhibitor
Cc1nc(-c2ccc(S(=O)(=O)N3CCN(c4ccccc4F)CC3)cc2)co1 | 0.3%
CCOC(=O)CSc1ccc2nnc(CCNS(=O)(=O)c3ccc(C)cc3)n2n1 | -8.7%
Cc1ccc(C)c(S(=O)(=O)NCc2ccc(C(=O)NCc3ccccn3)cc2)c1 | -12.5%
C=CC[C@@H](CC(=O)N[C@@H](CO)Cc1ccccc1)C(=O)NCCOC(=O)[C@@H](CC=C)Cc1ccc(F)cc1 | 7.4%
CCC(=O)Nc1c(C(=O)Nc2ccc3c(c2)OCCO3)oc2ccccc12 | 3.4%
CCOC(=O)/C(C(=O)Nc1ccc(Br)cc1)=C1/NC(C)(C)Cc2ccccc21 | 16.6%
COc1ccc(N(CC(=O)NCCC2=CCCCC2)S(=O)(=O)c2ccc(C)cc2)cc1OC | -2.0%
CC(C)C(NC(=O)c1ccccc1F)C(=O)Nc1ccc2c(c1)OCO2 (stereo not given) | 1.5%
CCNC(=O)Cn1cnc2c1c(=O)n(C)c(=O)n2C | 8.4%
COc1cccc(CNC(=O)c2ccc3nc(-c4ccccc4)c(-c4ccccc4)nc3c2)c1OC | 19.3%
NS(=O)(=O)c1ccc(NC2=CC(c3ccc(F)cc3)N(c3ccc(S(N)(=O)=O)cc3)C2=O)cc1 (stereo not given) | 21.6%
CCn1cc(-c2ccccc2)c(C(=O)O)c1-c1ccc(OC)cc1 | 0.4%
Nc1ccn([C@@H]2O[C@H](CO)[C@@H](OP(=O)(O)O)[C@H]2O)c(=O)n1 | -2.5%
COC(=O)/C=C/S(=O)(=O)c1ccc(NC(C)=O)cc1 | -7.5%
O=C(Nc1nnc(SCc2ccccc2)s1)c1cccs1 | -0.2%
S=C(NCCc1ccccc1)NC1CC1 | -1.7%
Oc1ccc(Br)cc1/C=N/NC(=S)NCCc1ccccc1 | -13.6%
CC(Oc1ccc(Cl)cc1)C(=O)Nc1ccc(S(=O)(=O)N2CCOCC2)cc1 (stereo not given) | -23.1%
COc1ccc(N/C=C\C(=O)c2ccc(C)cc2)cc1OC | -12.3%
CN(c1ccccc1)c1nc(N)c([N+](=O)[O-])c(N2CCCC2)n1 | 9.1%

Compounds above containing bromine:
SMILES | VDR inhibitor
CCOC(=O)/C(C(=O)Nc1ccc(Br)cc1)=C1/NC(C)(C)Cc2ccccc21 | 16.6%
Oc1ccc(Br)cc1/C=N/NC(=S)NCCc1ccccc1 | -13.6%

Continuation.
SMILES | VDR inhibitor
Cc1cc(S(=O)(=O)Nc2ccc(C(=O)N3CCN(c4ccccc4O)CC3)cc2)ccc1F | 3.6%
CC(=O)c1cccc(NC(=O)CCNC(=O)c2cccc(C)c2)c1 | -16.1%
COc1ccc(Nc2ncnc3sc(-c4ccccc4)cc23)cc1 | 21.6%
O=C(CN1C(=O)/C(=C/c2ccccc2)SC1=S)NNC(=O)c1ccccc1O | 65.8%[activator]
O=C(Nc1cccc(NC(=O)c2cccs2)c1)c1ccc(Br)o1 | -0.8%
CCN(CC)c1ccc(N2C(=O)CSC2=S)cc1 | ?
Cc1ccc(NC(=O)c2nc(S(C)(=O)=O)ncc2N(Cc2ccco2)Cc2ccco2)cc1C | 4.7%
CCC(Sc1nc2cc(OC)c(OC)cc2c(=O)n1CCc1ccc(Cl)cc1)C(=O)NCCOC (stereo not given) | 16.1%
COc1cc(OC)cc(C(=O)NCC(=O)OCC(=O)Nc2cc(S(C)(=O)=O)ccc2Cl)c1 | -12.8%
CC(C)(C)OC(=O)C[C@@H]1C/C=C\C[C@@H](CC(=O)N[C@H](CO)Cc2ccccc2)C(=O)NC[C@H](c2ccccc2)OC1=O | 4.5%
CCCCCCCCCC(=O)N1CCN(c2cc3c(cc2F)c(=O)c(C(=O)O)cn3CC)CC1 | -1.3%
COc1cccc(NC(=O)c2ccc(C(=O)c3ccccc3)o2)c1 | 19.5%
Cc1ccccc1CC(=O)Nc1ccc(S(=O)(=O)N2CCOCC2)cc1 | -20.3%
CC(CNC(=O)CN1C(=O)C(=O)N(C2CCCC2)C1=O)c1ccccc1 (stereo not given) | -12.5%
CN(C)/C=N/c1sc2c(c1C#N)CC(C)(C)NC2(C)C | 13.4%
COc1ccc(/C=C/C(=O)c2ccc(NS(=O)(=O)c3ccc(C)cc3)cc2)cc1O | ?
O=C(COC(=O)C1CCCC1)Nc1ncc(Cl)cc1Cl | -26.6%
COCCc1nn2c(=O)cc(COC(=O)c3ccccc3C)nc2s1 | 6.7%
O=S(=O)(c1ccc(OCc2ccc(Br)cc2)cc1)N1CCOCC1 | 5.3%
Cc1cc(C)nc(SCc2cc(=O)c(OC(=O)c3cc([N+](=O)[O-])ccc3Cl)co2)n1 | -15.4%

In a second layout: 4 of the compounds above.
Compound	VDR inhibitor
CCC(Sc1nc2cc(OC)c(OC)cc2c(=O)n1CCc1ccc(Cl)cc1)C(=O)NCCOC (stereo not given)	16.1%
O=C(Nc1cccc(NC(=O)c2cccs2)c1)c1ccc(Br)o1	-0.8%
O=S(=O)(c1ccc(OCc2ccc(Br)cc2)cc1)N1CCOCC1	5.3%
COCCc1nn2c(=O)cc(COC(=O)c3ccccc3C)nc2s1	6.7%

(list continues)
SMILES | VDR inhibitor
CCCC12CN(C(=O)c3ccc([N+](=O)[O-])cc3)CC(C)(CN(C(=O)c3ccc([N+](=O)[O-])cc3)C1)C2=O | -5.7%
Cc1ccccc1OCC(=O)N/N=C/C=C/c1ccccc1 | ?
Cc1[nH]c2ccccc2c1C(=O)CSc1nnc(C2CC2)o1 | -15.0%
O=C(NC1CCSC1=O)c1cccc(C(=O)NC2CCSC2=O)c1 (stereo not given) | 20.4%
CCCN(C(=O)CCc1nc(-c2ccc(OC)cc2)no1)c1ccccc1F | 1.0%
COP(=O)(OC)C(Nc1ccc(C)cc1)c1ccc([N+](=O)[O-])cc1 (stereo not given) | -14.7%
Cc1ccc(OCc2nc(C#N)c(NCCc3ccccc3)o2)cc1 | -12.3%
CCN(CC)CCNCc1ccc(OCc2ccc(Cl)nc2)c(OC)c1 | -12.4%
Cc1ccc(C(=O)NCCSc2c(C)[nH]c3ccccc23)cc1C | -17.2%
COc1ccc(CN2C3CCCC2CC(NC(=O)c2cccc(F)c2)C3)cc1 (stereo not given) | 12.0%
Cc1ccc(C(=O)n2ncn(C)c2=S)cc1 | ?
CC1(C)C(=O)NC(=O)N1Cc1ccccc1 | -5.7%
CN(C)c1ccc(/C=N/N(CCC#N)C2=NS(=O)(=O)c3ccccc32)cc1 | -8.0%
CCOC(=O)c1c(OCCO)nn(-c2ccccc2)c1N | 7.1%
O=C(NCc1ccccn1)c1cccc(S(=O)(=O)NCc2ccccc2)c1 | 2.7%
CN1C=CC=C/C1=C1\SC(=S)N(CC(=O)O)C1=O | 0.3%
CC(C)(CCl)C(=O)Nc1ccnc(-c2ccncc2)n1 | -9.5%
NC(=O)CSc1cn(Cc2cccc(F)c2)c2ccccc12 | -0.3%
COc1ccc(/C=C(\C#N)c2nc3ccccc3[nH]2)cc1O | -1.1%
CC(C)(C)C(=O)N1CCC(O)(CS(=O)(=O)Cc2ccccc2Cl)CC1 | 1.5%
COc1cc(C2c3c(oc4ccccc4c3=O)C(=O)N2c2nc(C)c(C)s2)ccc1O (stereo not given) | -6.6%
COc1ccc(-n2nc3c(c2NC(=O)C(C)C)CSC3)cc1 | -5.6%
Cc1c(C=O)c(Cl)n(C)c(=O)c1C#N | 5.9%
Cn1cc(-c2cc3n(n2)CCC(=O)N3CCCC(=O)Nc2ccccc2F)c2ccccc21 | 9.7%
O=C(NCc1ccncc1)c1cc(F)c(F)cc1Cl | -12.2%
O=S(=O)(c1ccccc1)N1CCN(S(=O)(=O)c2ccccc2)CC1 | 2.8%
O=C(c1ccc(Cl)c(S(=O)(=O)N2CCCC2)c1)N1CCCC(C(F)(F)F)C1 (stereo not given) | -11.4%
O=c1oc2ccccc2n1Cc1cccc(Cl)c1 | -1.3%
O=C(CCC1N=C2c3ccccc3N=C(SCc3ccccc3F)N2C1=O)NCCc1ccccc1 (stereo not given) | -4.8%
CCOc1ccc(CN2CCN(CC3CC3)CC2CCO)cc1 (stereo not given) | -11.2%
O=C(OCC(=O)N1CCCC1=O)c1nc(Cl)ccc1Cl | 3.4%
Cc1ccc(-c2cc(-c3coc4ccc(Cl)cc4c3=O)c3c(n2)-c2ccccc2OC3)cc1 | 12.2%
CCC(C)NC(=O)/C(=C/c1ccco1)c1ccccc1 (stereo not given) | 7.6%
CN1CCN(NC(=O)C2CC2)CC1 | 7.9%
O=C1CCCN1CCC1CCN(C2CC(=O)N(c3ccc(Cl)cc3)C2=O)CC1 (stereo not given) | 5.8%
COc1cccc(Cn2cnc3c(sc4nc(C)cc(C)c43)c2=O)c1 | -12.5%
CCc1ccc(N2CCn3c2nc2c3c(=O)n(Cc3ccc(F)cc3)c(=O)n2C)cc1 | 4.0%
COc1cc(OC)cc(C(=O)N2CCN(C(=O)c3cccs3)CC2)c1 | 18.3%
CC(C)Oc1ccc(C(=O)Nc2ccc(C(F)(F)F)n(C)c2=O)cc1 | -1.9%
O=C(Nc1ccc(Cl)cc1)N(Cc1nnc2n1CCCCC2)c1ccccc1 | 23.0%

Five structures from above, sorted by SMILES length, ascending:
SMILES | VDR inhibitor
CCOc1ccc(CN2CCN(CC3CC3)CC2CCO)cc1 (stereo not given) | -11.2%
CCC(C)NC(=O)/C(=C/c1ccco1)c1ccccc1 (stereo not given) | 7.6%
COc1ccc(-n2nc3c(c2NC(=O)C(C)C)CSC3)cc1 | -5.6%
O=S(=O)(c1ccccc1)N1CCN(S(=O)(=O)c2ccccc2)CC1 | 2.8%
Cc1ccc(-c2cc(-c3coc4ccc(Cl)cc4c3=O)c3c(n2)-c2ccccc2OC3)cc1 | 12.2%

Other results:
SMILES | VDR inhibitor
COc1cc(OC)cc(C(=O)Nc2nc(-c3nnn(-c4ccc(F)c(Cl)c4)c3C)ns2)c1 | 7.6%
COc1ccc(OC)c(-c2nnc3n2N=C(c2ccc(OC)c(OC4CCCC4)c2)CS3)c1 | ?
CCN1C(=O)CC(N2CCC(Cc3ccccc3)CC2)C1=O (stereo not given) | 7.7%
COc1cccc(CC(=O)NCC2(N3CCCCC3)CCCCC2)c1 | 4.0%
CCOC(=O)C1=NNC(C(=O)c2ccc(C)cc2)C1c1ccc(OC)cc1 (stereo not given) | 5.5%
COc1ccc(C2CC3(CC(C)(C)NC(SC)=N3)Oc3cc(O)cc(C)c32)cc1 (stereo not given) | 2.8%
C=CCn1c(SCc2ccc(C(=O)NCCO)cc2)nc2sc(C)c(C)c2c1=O | -12.6%
CCN(CCNC(=O)Cn1cc2c(n1)CCCC2)c1ccccc1 | 14.3%
Cc1cc(C)c(C#N)c(N2CCN(S(=O)(=O)Cc3ccccc3)CC2)n1 | 0.8%
COc1ccc(-c2noc(C3CCCN(C(=O)c4ccccc4OC)C3)n2)cc1OC (stereo not given) | 3.6%
O=C(Nc1ccc(S(=O)(=O)N2CCCC2)cc1)c1c(F)cccc1F | -4.7%
O=C(NCc1ccc2c(c1)OCO2)c1cccc(N2CCCC2=O)c1 | -6.7%
CCCc1c(C)c2ccc(O)c(CN3CCN(c4ccc(F)cc4)CC3)c2oc1=O | 6.5%
N#Cc1ccc(NC(=O)C2Cc3ccccc3CN2S(=O)(=O)c2ccc(F)cc2)cc1 (stereo not given) | 3.6%
COC(=O)CCC(=O)N(CCN(Cc1ccccc1)C(=O)CCC(=O)OC)Cc1ccccc1 | 2.5%
N#CCCn1c(=O)c(-c2cccc(C#N)c2)nc2cnc(Oc3ccccc3)nc21 | 15.6%
Cc1ccc(Cl)cc1N1CCN(C(c2cccnc2)c2nnnn2C2CCCCC2)CC1 (stereo not given) | 11.1%
O=C(/C=C/c1ccccc1)N1CCC[C@H]1CO | 7.3%
COCc1nnc(NC(=O)c2ccc(S(=O)(=O)N3CCCCCC3)cc2)o1 | -3.1%
O=C(/C=C/c1ccc(Cl)cc1)NC(=S)Nc1ccc(NC(=O)c2ccco2)cc1 | -9.0%
Cn1cc(S(=O)(=O)Oc2ccccc2)c(=O)n(C)c1=O | 5.7%
CC(=O)Nc1ccc(C(=O)CN2C(=O)NC3(CCOc4ccccc43)C2=O)c(F)c1 (stereo not given) | -11.0%
O=C(O)c1cc(N/N=C/c2c[nH]c3ccccc23)ccc1Cl | ?
COc1cccc(NC(=O)[C@@H](NC(=O)N2CCn3c2nc2ccccc23)C(C)C)c1 | 20.4%
CCOC(=O)C1=C(C)Nc2nc3ccccc3n2C1c1ccncc1 (stereo not given) | 2.5%
O=C(CN1C(=O)NC(Cc2ccccc2)C1=O)NC(=O)NC1CCCCC1 (stereo not given) | -0.2%
Cc1nc(-c2cccc(S(=O)(=O)N3CCC(C(=O)NCc4ccccc4)CC3)c2)no1 | -4.7%
COc1ccc(C(=O)NC2CC3CCCC(C2)N3Cc2ccccc2)cc1OC (stereo not given) | -4.1%
c1ccc(CNc2ccnc(-c3ccc4c(c3)OCO4)n2)cc1 | -7.8%
Cc1nn(CC(=O)NC(C)CCc2ccccc2)c(=O)c2nn(-c3ccccc3)c(C)c12 (stereo not given) | -0.2%
CC(=O)c1cc(F)ccc1OCC(=O)Nc1ccc2c(c1)OCO2 | -26.1%
COc1cc(OC)cc(C(=O)N[C@H](C(=O)NCCc2c[nH]c3ccccc23)C(C)C)c1 | -0.6%
Cc1ccccc1OCC(=O)Nc1ccccc1N1CCOCC1 | 5.1%
Cc1ccc(S(=O)(=O)Nc2ccc(O)c3ccccc23)c(C)c1 | 28.2µM*
COc1ccc(OC)c(NC(=O)CSc2nnnn2-c2ccc3c(c2)OCO3)c1 | -2.1%
CN(CCC1CCOCC1)Cc1nc(Cc2ccccc2F)no1 | -10.3%
CC(=O)NCCC(=O)Nc1cc(S(=O)(=O)N2CCOCC2)ccc1Oc1ccccc1 | 15.1%
COc1cccc(/C=C2\SC(=S)N(CCC(=O)NC3C=CS(=O)(=O)C3)C2=O)c1 (stereo not given) | -8.8%
